# Calb FLC = affects C. albicans growth with fluconazole; actives 0.57% (n = 300,000); AID 1979; C. albicans CaCi-2 (fluconazole-resistant clinical isolate) + fluconazole, Alamar Blue growth, 48 h; growth inhibition, % (no concentration beside the values);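 active = most replicates above 75%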;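 also: all wells also contain fluconazole at 8 µg/ml as a sub-toxic cotreatment; 0% = median of DMSO wells and 100% = median of geldanamycin control wells; wells of about 8 µL received 7.5 nL stock; the first replicate is given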
# T cruzi inh = T. cruzi replication inhibition; T. cruzi beta-gal in NIH3T3, luminescence, 90 h; inhibition, % (no concentration beside the values); actives 1.4% (n = 300,000); AID 1885;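 active = mean inhibition across valid replicates above about 55%, limit read from the data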;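 also: signal also drops with host cell toxicity which is not excluded here; 0% = plate median of DMSO wells and 100% = zero luminescence signal; higher percent means less beta-gal luminescence so fewer parasites; stock transfer was 50 nL into about 50 µL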
# LANA-H2A inh = blocks KSHV LANA binding to histone H2A/H2B. actives 0.6% (n = 320,000). AID 2629. cell-free LANA-H2A/H2B peptide, fluorescence polarization. inhibition, % (concentration not given with the values); in the data active = inhibition mostly above about 10%, no sharp cut-off; inactive = mostly below about 6.7%;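 also: stock transfer was 7.5 nL into about 10 µL; 0% = median of vehicle wells and 100% = median of positive control wells; one replicate is shown; the record names a cut of 25% in any replicate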
# Beta cell apopt = beta cell apoptosis inhibition; INS-1E cytokine-induced death, ATP luminescence, 48 h; percent of positive-control rescue, neutral wells zero; protection from apoptosis, % (no concentration beside the values); actives 0.8% (n = 300,000); AID 435005;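 active = all replicates at 75% or more, or half of them and the mean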;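 also: 0% = cytokine-treated negative control wells and 100% = positive control rescue; higher means more ATP so stronger rescue from cytokine killing; wells of about 40 µL received 100 nL stock; the first replicate is given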
# A1 inh = inhibitors of the anti-apoptotic protein A1, read as caspase activation. MEF A1-2A-BIM cells, Caspase-Glo 3/7 luminescence, 3 h; percent of clofoctol response, vehicle zero. caspase activation, % (concentration not given with the values). actives 0.066% (n = 330,000);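 active = over half of replicate activation scores above 10%, or exactly half above 10 with the replicate mean above 10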;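 also: wells of about 30 µL received 50 nL stock; many hits fall short of the cut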
# UCH37 inh = inhibitors of human deubiquitinating enzyme UCH37. actives 0.33% (n = 330,000). inhibition, % (no concentration beside the values). Q9Y5K5. purified proteasome/UCH37, Ub-AMC cleavage fluorescence;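 active = mean of two replicates above 20%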;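 also: 0% = compound-free wells with enzyme and 100% = wells lacking proteasome; stock transfer was 100 nL into about 20 µL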
# Target sequence (Q9Y5K5 whole entry, looked up): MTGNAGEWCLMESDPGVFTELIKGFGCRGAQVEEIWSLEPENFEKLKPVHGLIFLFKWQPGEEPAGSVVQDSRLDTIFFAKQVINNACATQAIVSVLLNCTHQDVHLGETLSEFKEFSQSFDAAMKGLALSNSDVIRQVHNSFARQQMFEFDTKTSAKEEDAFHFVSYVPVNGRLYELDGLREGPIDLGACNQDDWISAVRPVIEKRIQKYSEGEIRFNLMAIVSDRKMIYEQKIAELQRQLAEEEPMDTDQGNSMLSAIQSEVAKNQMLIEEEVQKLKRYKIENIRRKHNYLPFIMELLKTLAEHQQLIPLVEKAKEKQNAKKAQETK
#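 System: Proteasome-associated human UCH37 deubiquitinase; Input: 0.15 nM proteasome in added enzyme buffer; Also added: Ub-AMC substrate from 1 µM stock; Incubation: 30 min compound-proteasome preincubation then 25 min substrate reaction, room temperature; Detection: fluorescence, ex 355 nm, em 460 nm; Read-out: % inhibition of Ub-AMC cleavage fluorescence; Benchmarks: no-proteasome and no-compound wells.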
# RanGTP-Impb inh = inhibitors of RanGTP-importin-beta interaction, primary screen, biochemical, FRET, CFP-Ran, YFP-importin-beta, homogeneous; cell-free CFP-Ran/YFP-importin-beta FRET ratio; inhibition, % (concentration not given with the values); actives 1.1% (n = 300,000); AID 2216;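 active = most replicates above 15%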;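 also: 0% = DMSO wells and 100% = Ran loaded with GDP instead of GTP; wells of about 40 µL received 100 nL stock; the first replicate is given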
# Beta2AR agonist = human beta-2 adrenergic receptor agonism by FAP; actives 0.43% (n = 340,000); Am2.2-beta2AR cells, FAP receptor internalization, flow cytometry; reference of the scale not given here; response, % (concentration not given with the values); P07550; AID 504454;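 active = response above a set limit, near 3 SD of response in nonfluorescent compounds, cut at about 42% in these data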;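 also: stock transfer was 100 nL into about 11 µL; a reference agonist was the positive control; negative values mostly stem from fluorescent compounds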
# Target sequence (P07550 whole entry, looked up): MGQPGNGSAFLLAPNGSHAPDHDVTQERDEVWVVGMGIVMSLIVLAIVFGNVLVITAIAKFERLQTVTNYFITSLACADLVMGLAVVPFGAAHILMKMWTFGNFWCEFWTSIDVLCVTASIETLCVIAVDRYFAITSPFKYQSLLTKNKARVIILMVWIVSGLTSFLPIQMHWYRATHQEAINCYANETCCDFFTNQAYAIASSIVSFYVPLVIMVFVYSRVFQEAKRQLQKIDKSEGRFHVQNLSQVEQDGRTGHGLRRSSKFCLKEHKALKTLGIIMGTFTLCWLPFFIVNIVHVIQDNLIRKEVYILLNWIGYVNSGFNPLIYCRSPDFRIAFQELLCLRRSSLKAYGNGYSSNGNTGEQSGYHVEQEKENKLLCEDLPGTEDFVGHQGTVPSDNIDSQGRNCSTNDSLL
# * hit, by the source's call; i = inactive; / = no result given. Hits appear at their usual frequency (roughly 4.3% active in at least one column).
SMILES,Calb FLC,T cruzi inh,LANA-H2A inh,Beta cell apopt,A1 inh,UCH37 inh,RanGTP-Impb inh,Beta2AR agonist
O=C(c1ccc(CS(=O)Cc2ccc(Cl)cc2)o1)N1CCN(c2ccccc2F)CC1 (configuration not stated),-3,0,-8.8,1,-0.2,4.6,1.8,-4
C#Cc1ccc(CN2CCC(Oc3ccc(C(=O)NCc4ccccn4)cc3)CC2)cc1,-16,7,-1.0,-10,1.0,-1.0,0.4,-14
CCC(C)NS(=O)(=O)c1ccc(NC(=O)c2c(-c3ccccc3)noc2C)cc1 (configuration not stated),5,0,3.0,/,1.0,5.3,-0.3,5
CCOc1cc(CNCCCN2CCOCC2)cc(Br)c1OCC(=O)Nc1cccc(C(F)(F)F)c1,63,-22,-0.6,69,-0.4,6.7,1.1,18
Cc1[nH]c(C)c(S(=O)(=O)Nc2ccc(F)cc2Cl)c1C(=O)N1CCCC1,-12,-10,2.1,-3,-1.5,1.1,-0.7,0
Cc1ccc(C(=O)Nc2ccccc2C(=O)N2CCN(c3ccccc3)CC2)cc1,/,-6,1.2,-5,0.4,2.1,/,-4
Cc1ccc(NC2=NCC(=O)N2c2ccc3c(c2)OCCO3)c(C)c1,4,-1,-0.7,-3,-0.3,2.6,6.6,9
COc1ccc(C(O)(C2CCCCC2)C(CN2CCCC2)c2ccccc2)cc1 (configuration not stated),0,3,-4.4,2,0.3,3.2,-1.4,15
COc1cccc(COC(=O)c2nn(-c3ccccc3)nc2N)c1,27,3,-2.7,-1,1.0,-269,-1.5,3
COC(=O)CCC(=O)Nc1c(C)n(C)n(-c2ccccc2)c1=O,-5,-2,-1.5,1,-0.1,5.9,5.8,5
Cc1nc(-c2cccc(S(=O)(=O)N3CC(C)CC(C)C3)c2)cs1 (configuration not stated),30,13,2.5,-1,0.4,1.9,-0.1,0
Cc1ccc(-c2nnn(CC(=O)N(Cc3ccc(F)cc3)C(C(=O)NC3CCCC3)c3ccncc3)n2)o1 (configuration not stated),3,-22,-2.7,14,-0.4,1.2,-4.0,-1
NS(=O)(=O)c1cccc2cccnc12,-3,2,-2.9,-4,0.2,-0.4,-6.7,-9
Cc1cc(C)c(C)c(S(=O)(=O)NCCCN2CCOCC2)c1C,-26,-7,2.4,-7,0.0,2.0,-1.2,3
CCOC(=O)[C@@H]1[C@H]2COc3ccccc3[C@@H]2N2C(=O)N(c3ccc(F)cc3)C(=O)[C@@]12C,-5,-14,4.3,9,-0.2,0.9,5.3,-1
COc1ccccc1C(=O)N/C(=C/c1ccco1)C(=O)Nc1ccc(C(=O)O)cc1,2,8,-2.6,2,0.5,9.4,0.0,4
COC(=O)C(NS(=O)(=O)c1ccccc1Br)C(C)C (configuration not stated),15,-28,-1.8,-10,1.1,1.9,3.1,9
CCOC(=O)c1c(C)oc(/N=C/c2ccccc2O)c1C#N,-2,-3,4.4,-3,-0.3,/,-0.6,-17
COc1cccc(NC(=O)CCc2c(C)nc3nc(CNC(=O)c4cccc(F)c4)nn3c2C)c1,10,1,-4.0,2,0.8,1.3,-1.7,-3
CCC(C)[C@H](NC(=O)[C@H](Cc1ccccc1)n1c(=O)[nH]c2ccccc2c1=O)C(=O)N1CCC(C(=O)O)CC1 (some centres not stated),4,-15,4.1,-4,0.1,2.8,5.0,1
O=S(=O)(NCCc1ccncc1)c1ccc(Br)cc1,-10,-16,-5.5,-1,-0.3,4.1,-4.4,7
Cn1c(-c2ccc3c(c2)OCO3)c(C(=O)O)c(=O)c2ccccc21,-1,2,0.5,-21,0.7,-24,2.8,-8
COc1cc(OC)cc(C(=O)NC(=S)Nc2cc3oc4ccccc4c3cc2OC)c1,-3,14,2.7,27,-1.6,2.6,5.1,1
O=c1[nH]c(=O)n(Cc2ccccc2)c2nc(-c3ccco3)cc(C(F)(F)F)c12,4,24,1.8,10,-0.5,-96,1.2,2
Cc1cc(=O)n(C)c(=O)n1CCCCOc1cccc([N+](=O)[O-])c1,12,-5,0.0,6,0.4,1.7,-0.9,8
Cc1ccccc1OC(=O)c1cccc(S(=O)(=O)N2CCN(C)CC2)c1,/,/,-5.9,0,0.2,/,/,15
CCCCn1cnc2c([nH]c3ccccc32)c1=O,-7,-10,-0.5,-4,-0.6,-2.4,-2.2,-7
Cc1ccc(C2=NN(C(=O)CSc3nc4ncc(Cl)cc4[nH]3)C(c3ccco3)C2)cc1 (configuration not stated),-14,-12,1.4,4,-0.2,0.8,0.4,-2
COCCCn1c(-c2ccc(OC)cc2)nc2c1c(=O)[nH]c(=O)n2Cc1ccccc1,11,3,-6.6,0,0.5,-13,4.3,16
CC(=O)Nc1ccc(SCC(=O)Nc2sccc2C#N)cc1,-34,-8,1.6,/,0.4,5.0,1.7,-6
Cc1cc2ncn(S(=O)(=O)c3ccc(F)cc3)c2cc1C,2,-2,-0.2,1,0.2,2.2,-0.4,-2
CCn1c(=O)c2c3c(sc2n2c(=S)[nH]nc12)CCC3,6,-7,4.6,-3,0.3,2.1,6.5,6
Cc1ccc(CNC(=O)c2ccc(S(=O)(=O)Nc3c(C)n(C)n(-c4ccccc4)c3=O)cc2)cc1,-13,1,5.0,-2,-0.4,2.9,-3.1,-4
Cc1ccc(NC(=O)CN(C)C(=O)Nc2ccc(C)cc2)cc1,5,1,-2.7,2,-0.5,1.7,0.6,0
Cc1ccc(-c2nc(CS(=O)(=O)CC(=O)NC3CCC(C)CC3)c(C)o2)cc1 (configuration not stated),6,0,10,-4,0.8,5.1,1.0,-2
COc1cccc(N2CCN(C(=O)c3cc4c(OC)c(OC)c(OC)cc4[nH]3)CC2)c1,3,18,-1.7,6,-0.1,-0.6,1.7,2
O=C(COc1ccccc1)Nc1cccc(-c2nn[nH]n2)c1,-3,-2,6.7,/,0.5,2.1,1.1,-2
NC(=O)c1c(-c2cccs2)csc1N,-7,-17,0.5,-6,/,0.1,-6.1,/
COc1cccc2c1C(=O)CC2NC(=O)C(F)(F)F (configuration not stated),-3,-17,6.6,-11,1.0,1.3,2.5,1
Nc1ccc2nc(-c3ccccc3)[nH]c2c1,3,-6,-12,/,-8.0,i,-1.7,-2
O=C(NNC(=O)c1ccccc1[N+](=O)[O-])c1ccc(NS(=O)(=O)c2cccs2)cc1,8,-7,-1.8,/,0.0,-1.6,-0.9,2
N#Cc1cc([N+](=O)[O-])ccc1Oc1ccc(-c2nnco2)cc1,-17,4,-0.7,1,-0.7,-0.8,0.0,-20
CC(=O)Nc1ccc(S(=O)(=O)N(C)CC(=O)OCC(=O)Nc2cccnc2Cl)cc1,4,5,-1.8,-2,0.0,1.9,-3.1,-3
CC1CCCCN1C(=O)CSc1nc(C2CC2)nc2c1cnn2-c1ccccc1 (configuration not stated),10,29,-4.2,/,-0.4,-1.1,3.3,-3
COCCOC(=O)C1=C(N)Oc2c(oc(CO)cc2=O)C1c1c(F)cccc1Cl (configuration not stated),5,4,4.7,-2,1.0,0.9,0.4,4
CC(=O)/C(=N\Nc1ccccc1)Oc1ccc([N+](=O)[O-])cc1,-5,-7,-2.7,/,0.4,/,2.9,7
CC(=O)Nc1ccc(NC(=O)C2CC(=O)N(c3ccccc3Cl)C2)cc1 (configuration not stated),10,-4,/,-3,0.3,7.2,6.7,-2
CN(C)CCNC(=O)C(=O)NCC1OCCCN1S(=O)(=O)c1cccs1 (configuration not stated),-2,-16,-2.9,-1,0.4,1.5,-1.7,-4
CCOC(=O)C(C)n1cnc2c(nnn2-c2ccc(OC)cc2)c1=O (configuration not stated),41,-4,-0.3,5,-0.1,2.0,-3.9,-2
CCC(=O)Nc1ccc(NC(=O)c2ccccc2Cl)nc1,-2,-7,10,1,-0.3,0.3,-2.8,1
Cc1ccc(NC(=O)N2CCc3ccccc32)cc1,-12,-1,-3.8,9,-8.4,-0.1,0.5,16
Cc1ccc2c(c1)C(c1ccccc1)N(C(=O)C(C)C)CC(=O)N2 (configuration not stated),-6,9,/,/,/,3.1,0.5,1
O=C(Nc1ccc(Cl)cc1Cl)c1cc2ccccc2o1,14,-13,-3.9,-3,-5.9,-12,1.5,-3
N#C/C(=C\c1cccnc1)c1ccccn1,-1,19,-0.1,-7,0.4,5.3,-2.9,2
Cc1nc(SCC(=O)c2ccccc2)[nH]c(=O)c1Oc1ccc(Cl)cc1,0,2,4.1,-7,-0.3,7.3,3.1,0
COc1ccc(OCc2n[nH]c(=S)n2Cc2ccco2)cc1,3,-4,7.4,-2,0.3,0.9,-1.5,19
CCCCC(=O)NC(c1ccc(N(CC)CC)cc1)c1ccc2cccnc2c1O (configuration not stated),121*,68*,3.7,89*,-0.5,/,-0.7,11
O=C(COC(=O)c1ccccc1OCc1ccccc1Cl)NC1CC1,5,-3,-3.1,-1,-0.5,2.5,0.6,-1
COc1ccc(-c2cc(C(=O)c3c(N)n(C)c(=O)n(C)c3=O)c3ccccc3n2)cc1,1,-7,1.5,14,-1.3,-11,-7.7,3
COc1ccc(S(=O)(=O)N2CCCCCC2)cc1,-23,-21,-1.7,-10,0.3,0.6,-0.1,-12

# Complete entries, looked up by structure.
# Shown for CCC(=O)Nc1ccc(NC(=O)c2ccccc2Cl)nc1 = Calb FLC = -2; T cruzi inh = -7; LANA-H2A inh = 10; Beta cell apopt = 1; A1 inh = -0.3; UCH37 inh = 0.3; RanGTP-Impb inh = -2.8; Beta2AR agonist = 1
# Shown for COc1ccc(-c2cc(C(=O)c3c(N)n(C)c(=O)n(C)c3=O)c3ccccc3n2)cc1 = Calb FLC = 1; T cruzi inh = -7; LANA-H2A inh = 1.5; Beta cell apopt = 14; A1 inh = -1.3; UCH37 inh = -11; RanGTP-Impb inh = -7.7; Beta2AR agonist = 3

# Two records picked at random from those above:
SMILES,Calb FLC,T cruzi inh,LANA-H2A inh,Beta cell apopt,A1 inh,UCH37 inh,RanGTP-Impb inh,Beta2AR agonist
CCC(=O)Nc1ccc(NC(=O)c2ccccc2Cl)nc1,-2,-7,10,1,-0.3,0.3,-2.8,1
Cc1ccc2c(c1)C(c1ccccc1)N(C(=O)C(C)C)CC(=O)N2 (configuration not stated),-6,9,/,/,/,3.1,0.5,1

# The listing continues.
SMILES,Calb FLC,T cruzi inh,LANA-H2A inh,Beta cell apopt,A1 inh,UCH37 inh,RanGTP-Impb inh,Beta2AR agonist
CN(C)Cc1c(C(=O)N/N=C/c2ccc(OCc3ccc(F)cc3)cc2)nnn1-c1nonc1N,-3,11,-0.8,-1,0.4,/,6.1,8
CC(OC(=O)CN1C(=O)c2ccccc2C1=O)C(=O)N(C)c1ccccc1 (configuration not stated),7,5,1.5,1,1.1,4.4,-4.7,0
O=C(NCCNC(=O)c1ccccn1)c1ccc(-c2ccccc2)cc1,29,-7,-2.4,-8,0.3,2.1,-0.5,-4
CN(CC(=O)NCC1CCCO1)S(=O)(=O)c1ccc(Br)cc1 (configuration not stated),8,-15,0.7,-2,-0.9,3.9,-3.5,3
OC(CNC1Cc2ccccc2C1)COc1ccc(Cl)cc1 (configuration not stated),-3,31,1.4,6,-0.9,2.5,6.8,7
CC1CCCCC1NC(=O)c1cn(C)c2ccc(S(=O)(=O)N3CCCC3)cc2c1=O (configuration not stated),4,3,-0.1,9,0.4,2.8,-1.0,-3
CC(=O)C1=C(c2ccccc2)N(C(C)=O)n2c(C)nnc2S1,27,7,3.2,-9,-0.4,3.6,2.3,12
O=C1NC(=Nc2ccc(Cl)cc2)SC1Cc1cccc(Cl)c1Cl (configuration not stated),9,22,1.0,1,-0.5,-1.5,7.5,11

# From PubChem
